Sa growth inh = blocks Staphylococcus aureus growth; 170,000 tested, 0.53% active; relative growth, % (test concentration not listed); S. aureus RN4220 growth, OD600, 20 h, 42 °C; stronger effect = lower value; AID 720641;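 active = growth at 42 °C up to 50% and 20 or more points under that at 30 °C, or under 10% at both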;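 note: 300 nL library stock went into each well; scaled to the means of positive and negative controls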
HCMV UL50-53 inh = cytomegalovirus nuclear egress complex inhibition; 190,000 tested, 0.15% active; HTRF UL50-UL53 interaction, normalized percent inhibition; inhibition, % (test concentration not listed);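 active = both replicates at 50% or more, plus weaker picks with an unusually low signal ratio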;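 note: stock transfer was 100 nL into about 20 µL; 0% = negative control wells and 100% = wells with untagged competitor protein; inactives centre near -12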
GIV Gai3 FP = blocks GIV peptide binding to rat Galpha-i3; P08753; Galpha-i3/FITC-GIV peptide fluorescence polarization, 90 min; stronger effect = lower value; scaled: aluminum fluoride 0%, vehicle 100%; percent of control (FP), % (test concentration not listed); 210,000 tested, 0.42% active;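 active = replicate mean at 85% of control or lower, very high polarization wells dropped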;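 note: wells of about 15 µL received 100 nL stock; the first replicate is given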
Target sequence (P08753 whole entry, looked up): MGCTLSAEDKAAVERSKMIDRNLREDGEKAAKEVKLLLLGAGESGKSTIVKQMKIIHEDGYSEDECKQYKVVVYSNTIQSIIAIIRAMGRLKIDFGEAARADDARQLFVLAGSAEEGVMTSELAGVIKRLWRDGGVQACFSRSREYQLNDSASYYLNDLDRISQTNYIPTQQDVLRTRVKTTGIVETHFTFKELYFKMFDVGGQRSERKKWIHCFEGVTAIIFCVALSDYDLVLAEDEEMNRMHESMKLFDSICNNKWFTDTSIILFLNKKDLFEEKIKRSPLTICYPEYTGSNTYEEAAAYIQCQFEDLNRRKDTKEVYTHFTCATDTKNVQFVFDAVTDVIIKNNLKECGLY
Sa growth inh second temp = recorded beside Sa growth inh, whose call it bears; relative growth, %; measured here: growth at 30 °C;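 optical density after 20 h as mean of two plates; 100% = untreated growth and lower means inhibition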
Numbers without * were called inactive; / = no result given; & = joins results of further samples.

Value order – Sa growth inh	HCMV UL50-53 inh	Sa growth inh second temp	GIV Gai3 FP
- CCOCCCNC(=O)CN1C(=O)c2cccnc2Sc2ccccc21
  84	/	89	101
- COc1ccccc1C1CCN(Cc2cn[nH]c2-c2ccc(F)cc2)CC1
  91	-30	83	104
- CCc1ccc2oc(C(=O)Nc3cc(C)ccc3C)cc(=O)c2c1
  99	-22	88	103
- CN(Cc1ccccc1)C(=O)COc1ccc(-c2nc(-c3ccccc3)no2)cc1
  /	-36	/	109
- COC(=O)c1ccc(CSc2c(C)[nH]c3ccccc23)o1
  92	-14	72	106
- CCN1CCCC1CNC(=O)CCn1c(=O)c2cccn2c2cccnc21 (stereo unspecified)
  94	/	89	102
- CCC1CCCCN1C(=O)Cn1c(=O)n(CCC(=O)NCc2ccc3c(c2)OCO3)c(=O)c2ccccc21 (stereo unspecified)
  88	-27	84	104
- CCCCCN(c1nc2nc(C)cc(C)n2n1)S(=O)(=O)c1ccc(Cl)cc1
  /	-15	/	106
- Cc1noc(C)c1-c1nc(-c2ccc(C(F)(F)F)cn2)no1
  114	-1	75	102
- Oc1[nH]c2ccccc2c1C=NCc1ccccc1
  132	/	96	102
- Cc1ccc(CN2C(=O)SC(Nc3ccc(Cl)cc3)C2=O)cc1 (stereo unspecified)
  104	-2	88	106
- Clc1ccnnc1N1CCCC2CCCCC21 (stereo unspecified)
  87	-36	75	99
- O=C(CN1CCN(C(=O)c2ccccc2)CC1)Nc1cccc2nsnc12
  110	-58	86	/
- COc1cccc(Cn2cnc3c([nH]c4ccc(F)cc43)c2=O)c1
  /	-28	/	101
- CCOC(=O)Cc1nnc2c3nnc(CC(=O)OCC)n3c3nonc3n12
  89	-9	101	102
- O=C(NCCCN1CCN(C2CCCCC2)CC1)C1CCCN(S(=O)(=O)N2CCCCC2)C1 (stereo unspecified)
  102	/	90	99
- COc1ccccc1NC(=O)C(C)NC(C)C (stereo unspecified)
  104	-2	88	/
- Cc1ccc(C2CCCN2S(=O)(=O)c2ccc(C(C)C)cc2)cc1 (stereo unspecified)
  /	-30	/	109
- N#Cc1cccc(NC(=O)c2c(Cl)nc3sccn23)c1
  100	-17	88	/
- Cc1cccc(NC(=O)Cn2c(=O)n(Cc3ccc(C(=O)NCc4ccc5c(c4)OCO5)cc3)c(=O)c3ccccc32)c1
  96	14	83	111
- CC(C)c1ccc(Nc2nc3c(S(=O)(=O)c4ccc(Br)cc4)nnn3c3ccsc23)cc1
  100	/	84	97
- O=C(NCc1ccccc1F)c1cnc(N2CCCC2)nc1
  110	-26	99	111
- CCN(C(=O)COc1ccccc1)c1nnc(-c2ccc(Cl)cc2)s1
  97	1	95	103
- Cc1ccccc1CSCc1nc(N)nc(Nc2ccccc2C)n1
  102	-28	87	/
- O=c1[nH]c(C2CCCNC2)nc2c1nnn2Cc1ccccc1 (stereo unspecified)
  115	2	98	109
- COc1cc2nc(Nc3ccc(F)cc3)nc(N)c2cc1OC
  96	-3	94	104
- CCCSc1nc2ccccc2n1CC(=O)Nc1ccc(C(N)=O)cc1
  90	-18	92	/
- CCCCn1c(-c2ccccc2)n[nH]c1=S
  122	3	104	106
- CC(=O)Nc1cccc(-n2cc3c(c2-c2ccccc2Cl)c(=O)n(C)c(=O)n3C)c1
  98	-4	84	100
- Cn1c(=O)c2c(C3C(=O)Nc4ccccc43)c(-c3ccccc3)[nH]c2n(C)c1=O (stereo unspecified)
  /	-5	/	103
- Brc1ccc(Cn2ccnc2)cc1
  123	-29	98	105
- CC1(C)Oc2ccc3ccc(=O)oc3c2-c2cn[nH]c21
  85	-90	64	100
- CCCOc1ccc(N)cc1OCCC
  119	-16	90	/
- COc1ccc(CNC(=O)CCc2nnc3n(C)c(=O)c4sccc4n23)cc1
  94	14	100	101
- CC(C)n1c(=O)c(=O)[nH]c2cc(-c3noc(C4CC4)n3)ccc21
  /	8	/	104
- CCCn1c(SCC(=O)NCC23CC4CC(CC(C4)C2)C3)n[nH]c1=O
  115	4	99	/
- COC(CN(C)S(=O)(=O)c1ccc2c(c1)oc(=O)n2C)OC
  113	/	87	111
- CC1=C(C(=O)NC2CCCCC2)C2(CCCCC2)OC1=O
  88	/	94	105
- COc1cccc(C(=O)NCCS(=O)(=O)N2CC(C)CC(C)C2)c1 (stereo unspecified)
  91	-6	90	101
- CCCc1c(NC(=O)Nc2ccc(Cl)cc2Cl)cnn1-c1ccccc1
  110	14	102	103
- CCOC(=O)c1oc2ccccc2c1CSc1nnnn1-c1ccc(OC)cc1
  113	-8	92	/
- O=C(Nc1ccccc1Cl)c1cnc2ccccn2c1=O
  /	-29	/	106
- Cc1cccc(N2CCN(C(c3ccccc3F)c3nnnn3C(C)C)CC2)c1C (stereo unspecified)
  89	10	103	102
- Cc1cc(C)c(CO)cc1CO
  101	-4	85	109
- Cc1cc(-c2ccc(/C=C3/C(=O)NC(=O)N(C4CCCCC4)C3=O)o2)ccc1Br
  87	-10	86	/
- CCc1ccc(Nc2nc(Nc3ccc(OC)c(OC)c3)nc(N3CCOCC3)n2)cc1
  92	-34	76	106
- CCOc1cc(/C=C2\SC(N)=NC2=O)ccc1OC(=O)c1ccc(Cl)cc1
  /	-7	/	107
- O=S(=O)(c1cccc(C(F)(F)F)c1)N1CCC(Oc2ccc(-n3cnnn3)cc2)CC1
  89	-10	87	100
- Cc1ccc(OCc2nc3ccccc3n2CC(C)C)cc1
  98	-14	80	102
- Cc1ccc(S(=O)(=O)Nc2ccc3oc(C)c(C(=O)OC(C)C)c3c2)c(C)c1
  /	-20	/	108
- NC(=O)c1ccc(-c2ncc3c(n2)-c2ccsc2SC3)cc1
  101	-2	95	103
- Cc1ccccc1NC(=O)c1ccccc1NC(=O)c1ccccc1F
  112	-8	93	106
- O=C(C1CC2CCC1C2)N1CCN(c2ccc3c(c2)OCO3)CC1 (stereo unspecified)
  75	-13	93	/
- CC(C)(C)n1nc(C2CC2)cc1NC(=O)c1ccccc1
  88	-36	90	104
- Cc1cccc(NC(=O)c2sc3nc(N4CCOCC4)c4c(c3c2N)CC(C)(C)OC4)c1
  100	-15	93	106
- CCOC(=O)Cc1sc(Nc2ccccn2)nc1-c1ccccc1
  75	/	45	98
- Cc1n[nH]c(C)c1S(=O)(=O)N1CCc2ccccc21
  110	/	97	99
- CCSCCOC(=O)C1=C(C)NC2=C(C(=O)CC(c3ccc(OC)cc3)C2)C1c1cccc([N+](=O)[O-])c1 (stereo unspecified)
  /	-18	/	102
- Cc1ccc(P(C)(=O)c2ccc(C)cc2)cc1
  106	-5	83	/
- C1=C(c2ccccc2)CC(c2ccccc2)=C1
  96	-46	74	110

Following part:
Value order – Sa growth inh	HCMV UL50-53 inh	Sa growth inh second temp	GIV Gai3 FP
- Cc1ccc2oc(=O)c3cc(C(=O)N(Cc4ccccc4)C(C)C)sc3c2c1
  117	-42	86	99
- Cc1cccc(-c2nnc(SCc3cc(=O)n4ccsc4n3)o2)c1
  /	-35	/	96
- CC(C)(N)CN1CCCC1
  88	-5	99	107
- O=C(O)CCSC1=CCS(=O)(=O)c2ccc(Cl)cc21
  89	-26	50	110
- Cc1ccc(SC2=CCS(=O)(=O)C2)cc1
  /	-13	/	99
- COc1ccc(CNC(=O)C(c2cccs2)N(Cc2cccs2)C(=O)Cc2cccs2)cc1 (stereo unspecified)
  110	2	109	98
- Cc1nc(-c2ccc(C)c(S(=O)(=O)N3CCC(C(=O)NCc4ccc(F)cc4)CC3)c2)no1
  76	/	89	104
- COc1ccc(-n2nc(C(=O)NCC(=O)N3CCCC3)c3ccccc3c2=O)cc1
  98	/	83	112
- Cc1cccn2c(=O)c3cc(C(=O)NCc4ccccc4)c(=N)n(CCOCCO)c3nc12
  116	-71	86	107
- Cc1ccc(C)c(CN2C(=O)c3ccccc3S(=O)c3ccc(C(=O)NCc4ccccc4Cl)cc32)c1 (stereo unspecified)
  97	10	101	95
- Cc1ccc(Cn2c(C)c3cnn(CC(=O)NCCc4ccc(Cl)cc4)c(=O)c3c2C)cc1
  97	0	97	99
- COc1ccc(-c2csc(-c3nc(-c4ccc(F)cc4)cs3)n2)cc1F
  /	-14	/	101
- CC1CCCN(S(=O)(=O)c2ccc(S(=O)(=O)N(Cc3ccccc3Cl)CC3CCCO3)cc2)C1 (stereo unspecified)
  /	-8	/	104
- CON(C)S(=O)(=O)c1cccc(C(=O)Oc2ccc(-n3cnnn3)cc2)c1
  88	-25	98	/
- CN1CCc2c(sc3c2CN(C(=O)Nc2ccc4c(c2)OCO4)C(c2ccc(F)cc2)c2cccn2-3)C1 (stereo unspecified)
  /	-15	/	107
- COc1ccc(C2CC(c3c(-c4ccccc4)c4cc(Br)ccc4[nH]c3=O)=NN2C(C)=O)cc1 (stereo unspecified)
  /	-9	/	110
- COc1cccc(COCC(O)CN2CCC(C(N)=O)CC2)c1 (stereo unspecified)
  82	-27	91	/
- CCC(=O)Nc1nc2cc(NC(=O)C3CCN(S(=O)(=O)N4CCOCC4)CC3)ccc2s1
  /	-28	/	105
- Cn1ccsc1=NC(=O)/C=C/c1ccc(S(=O)(=O)N2CCOCC2)cc1
  101	-70	96	/
- CC(C)(C)c1cc(C(C)(C)C)n(-c2ccc(C(=O)O)cc2)n1
  103	15	99	107
- O=C(O)c1ccc(/C=N/n2cc(-c3ccccc3)[nH]c2=S)cc1
  109	10	95	/
- O=C(Nc1ccccc1)Nc1cc(C2CC2)nn1-c1ccccc1
  98	-11	92	112
- CCSc1ncc(Cl)c(C(=O)Nc2ccc(S(=O)(=O)Nc3nccc(C)n3)cc2)n1
  96	-30	79	102
- CCOC(=O)c1ccc(-n2c3c(cc(C(=O)NC(C)=O)c2=O)C(=O)CC(C)(C)C3)cc1
  /	-33	/	99
- COCC1=C(C(=O)OC(C)OC(=O)OC(C)C)N2C(=O)[C@@H](NC(=O)/C(=N/OC)c3csc(N)n3)[C@H]2SC1 (stereo partly specified)
  37	-45	50	/
- CCOCCOC(=O)C1=C(C)NC2=C(C(=O)CC(c3ccc(OC)cc3)C2)C1c1ccc(Br)cc1 (stereo unspecified)
  /	-21	/	101
- O=C1CC(c2ccc(F)cc2)Sc2ccccc2N1 (stereo unspecified)
  /	-17	/	94
- CCOC(=O)C1=C(CCl)OC(N)=C(C#N)C1c1ccccc1F (stereo unspecified)
  /	1	/	98
- O=C(NCc1cccc(Cl)c1)c1cnc2ccccn2c1=O
  96	/	88	108
- Cc1ccc(NC(=O)CN2C(=O)S/C(=C\c3ccc(C)o3)C2=O)cc1
  117	5	94	123
- CN(C)c1ccc(CN(CC2CCCO2)C(=O)COc2ccc(Cl)cc2)cc1 (stereo unspecified)
  107	-14&-11	91	106&109
- O=S(=O)(c1ccc(Cl)cc1)c1nc(-c2ccco2)oc1SCc1ccc(F)cc1
  97	-1	91	99
- CCOC(=O)C1CCN(C(c2cccnc2)c2c(C)[nH]c3ccccc23)CC1 (stereo unspecified)
  85	-36	69	/
- Cc1cc(C)n2nc(SCC(=O)Nc3cc(Cl)ccc3C)nc2n1
  100	-15	91	105
- O=C(OCC(=O)N(Cc1ccccc1)C1CCS(=O)(=O)C1)c1ccccc1C(F)(F)F (stereo unspecified)
  116	8	101	/
- COC(=O)CNC(=O)c1cc(OC)c(OC)c(OC)c1
  112	/	104	103
- NNc1nnc2c(n1)[nH]c1ccccc12
  92	-26	81	/
- CCc1cccc(CC)c1NC(=O)CC#N
  92	23	102	/
- CCc1ccc(-n2nc(C)c3c(C)cc(=O)n(CC(=O)NCc4ccc(C)cc4)c32)cc1
  100	/	92	98
- O=C(Nc1ccc2nc(N3CCC(N4CCCCC4)CC3)cc(C(=O)O)c2c1)c1ccc(F)cc1
  /	-40	/	102
- CCN(c1ccccc1)S(=O)(=O)c1nnc(NC(=O)c2ccccc2OC)s1
  93	-3	81	104
- CCSc1nnc(-c2cccc(S(=O)(=O)N(C)C)c2)n1-c1cccc(C)c1
  92	-22	93	/
- CN(C)c1cc(=O)n2c(n1)SCCC2
  111	5	96	105
- O=C(c1ccccc1)N1CCN(C(=O)c2cccc(S(=O)(=O)N3CCCC3)c2)CC1
  103	-2	93	/
- CC(/C=C1\SC(=S)N(CCC(=O)NC2CCCCC2)C1=O)=C\c1ccccc1
  89	/	106	112
- N#Cc1ccc(-c2cccs2)nc1SCc1ccc(Br)cc1
  77	-19	85	112
- CCC(=O)N1CCc2cc(S(=O)(=O)Nc3cc(C)ccc3OC)ccc21
  112	1	96	104

From PubChem
